# Screening results deposited in PubChem by PCMD.
# RmlC RmlD mix: RmlC and RmlD coupled enzyme inhibitors, primary screen, biochemical, 384-well, compound mixtures, retest; RmlC/RmlD coupled enzyme inhibition, 384-well mixture HTS; inhibition, % at 5.5 µM; 0.39% of 110,000 active; AID 1532, 2009; in the data active means inhibition above about 30%, passing the limit was not always enough; only retested compounds are shown here; further: strong numbers were not always called active
# RmlC RmlD mix retest: further read-out of RmlC RmlD mix, marked with its call; inhibition, %; measured here: mean retest inhibition;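 single compounds in two wells; values far above 100% likely come from compound fluorescence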
# An asterisk follows results filed as active; i = inactive; . = no result given. This is a subset (hit frequency here may not be typical).
# Each structure is followed by: RmlC RmlD mix	RmlC RmlD mix retest
COc1ccc(-c2c(C(C)=O)c(C)nc3sc4c(c23)NC(c2ccccc2)NC4=O)cc1 (stereo not given)
 : 43.2	16.6
O=C(CCc1nc(-c2ccccc2F)no1)NCCN1CCc2ccccc2C1
 : 37.0	-0.6
CC(C)n1c(N2CCN(CC(=O)Nc3ccc4c(c3)OCCO4)CC2)nc2ccccc21
 : 106.6	-2.2
Cc1ccc(S(=O)(=O)N2CCN(C(=O)c3cc4c(C)nn(-c5ccccc5C)c4s3)CC2)cc1
 : 64.2	-2.3
COc1cc(OC)c(OC)cc1CNC1CCCCCC1
 : 30.0	-0.5
CC(C)(C)C1=Nn2c(nnc2C2CCCCC2)SC1
 : 68.1	1.3
N#CC(C(=O)NCCc1ccccc1)c1nc2ccccc2nc1N1CCOCC1 (stereo not given)
 : 33.8	-2.1
COC1(OC)N=C(N)C2(C#N)C(c3ccccc3)NC(C)=CC12C#N (stereo not given)
 : 95.6	2.8
COC(=O)c1ccc(-c2ccco2)n1Cc1ccccc1Cl
 : 37.7	-7.7
CCCC(=O)Nc1ccccc1NC(=O)CN(C)S(=O)(=O)c1ccc(C)cc1
 : 105.1	0.2
COc1ccc(CCN(Cc2nc(-c3ccccc3)no2)Cc2nc(-c3ccccc3)no2)cc1OC
 : 146.3	-0.3
CCn1c2ccccc2c2cc(C3C(C#N)=C(C)NC(C)=C3C#N)ccc21
 : 115.2	-118.8
COc1ccc(C(=O)COC(=O)[C@H](C)Nc2ccc(C(F)(F)F)cc2[N+](=O)[O-])c(OC)c1
 : 121.3	-1.2
O=C(COc1ccccc1Cl)Nc1cc(Cl)ccc1Oc1ccccc1
 : 40.0	0.2
O=C(c1cccc(S(=O)(=O)N2CCCCC2)c1)N1CCOCC1
 : 75.6	-9.5
CC(C)CCNC(=O)c1cc(-c2ccco2)nc2ccccc12
 : 69.3	-39.9
COc1ccc(N2CCN(C(=O)Cc3ccc(-n4c(=O)[nH]c5ccccc5c4=O)cc3)CC2)cc1
 : 100.1	-1.1
Cc1nc2ccccn2c1C(=O)CSc1ccc(Cl)cc1Cl
 : 63.5	5.3
CC(C)(C)c1nc(NCC2CCCO2)c2nnn(Cc3ccccc3)c2n1 (stereo not given)
 : 34.0	-3.1
CCC(C)NC(=O)c1cnn2c(C)c3c(nc12)CCCC3 (stereo not given)
 : 95.0	5.0
CCN1CCN(C(c2nnnn2Cc2ccc3c(c2)OCO3)C(C)C)CC1 (stereo not given)
 : 92.7	-4.8
CCC(=O)Nc1ccc(S(=O)(=O)c2ccc(NC(=O)CC)cc2)cc1
 : i	-9.6
Cc1ccc(NC(=O)c2ccc(CSc3ncnc4nc[nH]c34)cc2)c(C)c1
 : 31.5	4.1
CC(CO)Nc1nc(SCc2ccccc2)nc2sc3c(c12)CCC3 (stereo not given)
 : 60.2	-13.4
CCOC(=O)c1ccccc1NC(=O)CSc1nc2ccccc2o1
 : 38.7	-2.4
CCN(CC)S(=O)(=O)c1cccc(-c2nnc(SC(C)C(=O)NCCC3=CCCCC3)o2)c1 (stereo not given)
 : 58.1	-0.3
C=CCOC(=O)C1=C(C)NC(SCC(=O)NC(=O)OCC)=C(C#N)C1c1cccnc1 (stereo not given)
 : 30.3*	97.3*
Cn1nc2c(c1C(=O)O)CCCC2
 : 32.4	-12.1
CCc1cc2cc(C)cc(C)c2nc1SCC(=O)N1CCN(C(=O)c2ccco2)CC1
 : 36.1	10.6
CC(C)CN(C(=O)COC(=O)Cc1n[nH]c(=O)c2ccccc12)C1CCS(=O)(=O)C1 (stereo not given)
 : 39.6	-9.3

# (listing goes on)
# Each structure is followed by: RmlC RmlD mix	RmlC RmlD mix retest
CCc1nc(N2CCOCC2)c(C#N)c2c1COC(C)(C)C2
 : 49.8	-22.1
N=c1c(C(=O)NCc2ccc(F)cc2)cc2c(=O)n3ccccc3nc2n1Cc1cccnc1
 : 52.7*	125.9*
O=C1C2C3CCCC3=C3CCCC3C2C(=O)N1c1cccc(Cl)c1 (stereo not given)
 : 61.9	-2.7
COC(=O)c1cc(C(=O)Nc2cccc(C)n2)cc([N+](=O)[O-])c1
 : 71.3	-9.7
Cc1cc(C)n(-c2nnc(C)n2/N=C/c2ccccc2F)n1
 : 86.4	5.3
COc1ccccc1C1CC(c2ccc(F)cc2)Nc2ncnn21 (stereo not given)
 : 39.5	0.4
CCc1cc2c(NCC3CCCO3)ncnc2s1 (stereo not given)
 : 99.2	-10.3
CCn1c(COc2ccccc2OC)nnc1SCC#N
 : 55.8	-0.8
O=C(CSc1nnc(Cc2cccs2)n1C1CCCCC1)N1CCCc2ccccc21
 : 107.8	1.9
CC(=O)c1ccc(-c2nc3ccccc3n2C)o1
 : 150.8*	128.9*
Cc1ccnc(NC(=S)NC(=O)/C=C/c2ccco2)c1
 : 61.2	-7.3
CCOC(=O)c1sc2nc(CC(=O)OC)nc(NCCN3CCOCC3)c2c1C
 : 146.9	6.0
COC(=O)c1ccccc1NC(=O)c1nc2nc(C)cc(C(F)F)n2n1
 : 75.6	-5.4
CO/N=C/C(C#N)c1ncc(C(F)(F)F)cc1Cl (stereo not given)
 : 30.6	10.9
Cc1cc2n(n1)C(c1ccsc1)Nc1ccccc1-2 (stereo not given)
 : 43.0	-20.9
O=C(Nc1cccc(Cl)c1)Nc1ccc(Cl)cn1
 : 70.7	-5.2
O=C(C1CC2CCC1C2)N1CCN(Cc2ccc3c(c2)OCO3)CC1 (stereo not given)
 : 68.4	3.1
COc1ccc2c(c1)-c1ccccc1S(=O)(=O)N2C(C)=O
 : 131.5*	88.0*
CCC(=O)Nc1ccc(NC(=O)CSc2nnnn2-c2cccnc2)cc1C
 : 64.5	-12.6
Cn1c(=O)c(=O)n(C)c2cc(S(=O)(=O)NCCc3ccccc3)ccc21
 : 43.6	-9.1
CCn1cc(C(=O)NCc2ccc3c(c2)OCO3)c(=O)c2cc(S(=O)(=O)N3CCOCC3)ccc21
 : 114.1	18.2
CCCc1cc(=O)oc2c(CN3CCOCC3)c(O)ccc12
 : 165.6	25.1
CCOC(=O)c1cc(-c2ccc(/C=C3/C(=O)NC(=O)C(C#N)=C3C)o2)ccc1Cl
 : 42.6	28.5
Cc1cccc(C(=O)Nc2ccccc2-c2nnn(CC(=O)Nc3ccc4c(c3)OCCO4)n2)c1
 : i	9.8
CNC(=O)CC1C(=O)N(C)C(=S)N1NC(=O)c1ccc(Cl)cc1 (stereo not given)
 : 47.5	-2.0
O=C(O)c1ccc2c(c1)-c1nc3ccccc3n1C2=O
 : 121.8*	171.9*
Cc1ccc(C(C(=O)NC2CCCC2)N(Cc2ccc3c(c2)OCO3)C(=O)Cc2cccs2)cc1 (stereo not given)
 : 30.2	-1.8
CSC1=C(C#N)C(c2ccc(Cl)cc2)C2=C(CC(C)(C)CC2=O)N1 (stereo not given)
 : 81.9	-12.2
C=CCNC(=S)NNc1ncnc2sc3c(c12)CC(C)(C)OC3
 : 58.2	-8.5
O=C(c1ccc(F)cc1)n1ccc(-c2cnc(-c3ccccc3)s2)n1
 : 79.6*	.

# Compound profiles, as listed above. Values in the order: RmlC RmlD mix | RmlC RmlD mix retest
# Cn1c(=O)c(=O)n(C)c2cc(S(=O)(=O)NCCc3ccccc3)ccc21 in the list: 43.6 | -9.1
# Cc1cc(C)n(-c2nnc(C)n2/N=C/c2ccccc2F)n1 in the list: 86.4 | 5.3
# O=C(CSc1nnc(Cc2cccs2)n1C1CCCCC1)N1CCCc2ccccc21 in the list: 107.8 | 1.9
# CCc1nc(N2CCOCC2)c(C#N)c2c1COC(C)(C)C2 in the list: 49.8 | -22.1

# Next entries.
# Each structure is followed by: RmlC RmlD mix	RmlC RmlD mix retest
CN(C)c1ccc(-c2nn3c(C4CCCCC4)nnc3s2)cc1
 : 36.0	-18.9
CC(C)(C)N1C(=O)c2ccc(C(=O)NCc3ccco3)cc2C1=O
 : 50.5	5.8
Cc1ccc2nc(-c3cccnc3SCC(=O)N3c4ccccc4CC3C)[nH]c2c1 (stereo not given)
 : 34.0	-4.5
Cc1cccc(-c2nnc(SCCOc3ccc4c(C)cc(=O)oc4c3)o2)c1
 : 139.5	-26.0
CN(C)c1ccnc2c[cH-]cc12.[Fe].c1ccc(-[c-]2[c-](-c3ccccc3)[c-](-c3ccccc3)[c-](-c3ccccc3)[c-]2-c2ccccc2)cc1 (stereo not given)
 : 33.4	-7.2
N#Cc1c(C(F)(F)F)cc(C2CC2)[nH]c1=O
 : 39.7*	61.9*
CCOC(=O)c1ccc(-c2ccc(CO)o2)cc1
 : 62.4*	101.3*
CCOc1ccc(Cc2c(O)[nH]c(=O)[nH]c2=O)cc1
 : 37.4	-4.2
Cn1ncc2cc(NC(=S)NC(=O)c3ccccc3)ccc21
 : 84.2	-14.0
O=C(Nc1cccc(-c2nnc(-c3ccccc3)o2)c1)c1ccco1
 : 49.1	6.8
COc1ccc2c(c1)c1ncn(CCN3CCCC3)c(=O)c1n2C
 : 35.9	20.6
CCc1ccc2[nH]c(=O)c(CN(Cc3ccc(F)cc3)C(c3nnnn3CCN3CCOCC3)C(C)C)cc2c1 (stereo not given)
 : 31.5	6.8
COC(=O)CC(NC(=O)c1ccco1)c1cccc2ccccc12 (stereo not given)
 : 34.2	-0.3
Cc1cccc2cc(C#N)c(SCC(=O)N3CC(=O)Nc4ccccc43)nc12
 : 32.2	16.2
COc1ccc(N(CC(=O)NCc2ccco2)S(C)(=O)=O)cc1OC
 : 33.1	-3.5
C=C1CCN(C(Cc2ccccc2)C(=O)OC)S(=O)(=O)c2ccc(F)cc21 (stereo not given)
 : 41.4	2.1
O=C(NCc1ccc2c(c1)OCO2)c1c[nH]c2ccc(S(=O)(=O)N3CCOCC3)cc2c1=O
 : 54.6	2.5
Cc1ccccc1OCC(=O)Nc1cccc(NC(=O)c2ccco2)c1
 : 94.0	1.0
COCCn1c(-c2ccc(-c3ccccc3Cl)o2)nc2c1c(=O)[nH]c(=O)n2CC(C)C
 : 143.8*	.
CCOc1ccc2nc(C(C)O)[nH]c2c1 (stereo not given)
 : 114.1	35.4
COc1ccc(-c2csc(NC(C)c3nc4cc(Cl)c(N5CCCCC5)cc4n3CCOCCO)n2)cc1 (stereo not given)
 : 52.9	-3.8
CCn1c(SCC(=O)NNC(=O)c2ccccc2)nnc1-c1ccncc1
 : 44.6	-6.1
COc1ccc(-c2cc(C(F)(F)F)n3nc(N)nc3n2)cc1
 : 75.3*	162.1*
CCC(=O)Nc1ccc2oc(-c3ccccc3Br)nc2c1
 : 32.3	-14.3
Cc1nc(SCC(=O)Nc2ccc(N3CCOCC3)cc2)nc(C)c1C
 : 30.8	-14.2
Cc1cc(=O)oc2c(CN3CCCCC3)c(O)c(Cl)cc12
 : 94.0*	123.1*
CCOC(=O)C1CCN(C(=O)C2CCN(S(=O)(=O)CC)CC2)CC1
 : 38.2	1.1
[O-][n+]1onc2c1CCC1N(O)C(c3ccccc3)CC21O (stereo not given)
 : 92.8	-5.5
CCSc1nc2ccccc2n1Cc1nc(N)nc(N(C)C)n1
 : 105.8	3.2
CCOc1cc(CNC(C)(C)CO)cc(Br)c1OCc1ccc(Cl)cc1Cl
 : 46.2	5.4

# Further records.
# Each structure is followed by: RmlC RmlD mix	RmlC RmlD mix retest
CCNc1nc(N)nc(Oc2ccc(OCCOc3ccc(Cl)cc3Cl)nn2)n1
 : 70.0	5.8
N#CC1=C(N)SC(N)=C(C#N)C1CCc1ccccc1
 : 36.9	-4.1
CCOC(=O)CSc1nc(CC)nc2ccccc12
 : 130.7	10.9
COc1ccc(CCNc2oc(Cc3cccc4ccccc34)nc2C#N)cc1OC
 : 42.5	2.0
Cc1nc2c(sc3nc4c(cc32)COC(C)(C)C4)c(=O)o1
 : 41.9*	30.7*
CS(=O)(=O)Nc1ccc(C(=O)NC2CCCC2)cc1
 : 47.0	-7.0
COc1cc2c3nnc(-c4ccc(F)cc4)c-3cn(Cc3ccc(C)cc3)c2cc1OC
 : 69.5	-9.9
N#Cc1nc(-c2cccs2)oc1NCCCN1CCOCC1
 : 66.7*	101.9*
Cc1cc(NC(=O)COC(=O)c2n[nH]c3ccccc23)no1
 : 108.1	-9.5
COC(=O)c1ccc(CSc2nnc(CNC(=O)c3ccc(OC)cc3)o2)o1
 : 50.4	-13.9
CC(=O)c1cccc(NC(=O)N[C@@H](CC(C)C)C(=O)O)c1
 : 65.4	-1.0
CCOC(=O)c1sc(=S)n2c1[nH]c(=O)c1ccc(C(=O)OC)cc12
 : 75.3	-1.2
CCOC(=O)c1cc2c(nc1N)CC(C)(C)OC2
 : 38.9*	45.2*
CCSc1nnc(CCNC(=O)OC(C)(C)C)o1
 : 39.6	0.6
O=C(O)c1cc2ccc3ccccc3c2oc1=O
 : 50.8	43.5
O=S(=O)(c1cccc2ccccc12)N1CCSC1
 : 73.7	-8.6
CCCCn1c2nc3ccccc3nc2c2c(=O)n(C(C)CC)cnc21 (stereo not given)
 : 30.6	-21.0
Cc1cc(NC(=O)COC(=O)C2COc3ccccc3O2)no1 (stereo not given)
 : 43.1	-2.6
O=C(Cn1cnnn1)Nc1ccccc1Cc1ccccc1
 : 45.3	-4.1
CSc1nc(C)c2cc(C)oc2n1
 : 136.2	-10.1
COc1ccc(Cl)cc1NC(=O)N(C)Cc1c(C)nn(C)c1C
 : 42.0	5.9
Cc1ccc(C)c(NS(=O)(=O)c2ccc(OCC(=O)NCc3ccco3)cc2)c1
 : 42.9	13.9
Cc1cccc2cc(CN(CC3CCCO3)C(=O)NC3CCCCC3)c(=O)[nH]c12 (stereo not given)
 : 86.0	-4.3
O=C(O)c1cc(-c2ccco2)nc2ccccc12
 : 53.6*	131.5*
Cc1nn(C)cc1/C=N/n1nnnc1N
 : 85.0	-10.5
C[C@@H]1C[C@@H]2OC(=O)[C@]3(C)[C@H]2[C@@H](OC3(C)O)[C@]2(C)C(=O)CC[C@H]12 (stereo not given in full)
 : i	-28.7
C=CCNC(=O)NC(=O)COC(=O)/C(C#N)=C/c1cc(C)n(CCC(C)C)c1C
 : 30.0*	47.6*
COC(=O)c1ccccc1NC(=O)CSc1ccc(C)cc1
 : 95.0	2.4
CCC(=O)NC(Nc1ncc(C)s1)(C(=O)OC)C(F)(F)F (stereo not given)
 : 75.3	-5.0
CC(=O)Nc1ccc(NC(=O)c2sc3nc4c(c(-c5ccc(C)cc5)c3c2N)CCC4)cc1
 : 47.9*	82.8*
